HIV TAR-Tat – TAR RNA-Tat peptide displacers, HIV-1, primary screen, biochemical, FRET, FAM/TAMRA-labeled Tat. HIV-1 TAR RNA, Tat peptide displacement FRET; stronger effect = higher value. z-score (concentration not given with the values). 0.6% of 100,000 active. AID 1259389, 2018;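 note: score is relative to mean and SD of negative controls; some compounds called inactive have numbers as strong as hits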
CDC25B-CDK2 inh – primary biochemical HTRF screen for blockers of M-phase inducer phosphatase 2 binding to CDK2/cyclin A. P30305+P24941. HTRF CDC25B-CDK2/CyclinA binding, anti-His/anti-Flag; stronger effect = higher value. z-score (no concentration beside the values). 0.72% of 94,000 active;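 note: score is relative to mean and SD of negative controls; strong numbers were not always called active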
Active calls of the source: *; nt = not tested or not shown.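 Rule for the calls: active = z-score from 3 up in half or more of its runs; inactive = the rest.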 Hits appear at their usual frequency; 0.94% or so of the library scored in one or more.

Fields – HIV TAR-Tat, CDC25B-CDK2 inh
COc1ccc(OC)c(NC(=O)C(=O)NC2CC(C)CC(C)(C)C2)c1 (configuration not stated)
  nt, 1.02
Cc1ccnc(NC(=O)CCc2nnc3ccc(N4CCC(C)CC4)nn23)c1
  -0.15, nt
N#Cc1nc(/C=C/c2ccc(F)cc2)oc1NCc1ccco1
  0.72, -2.22
CCOC(=O)c1c(NC(=O)NC2CCCCC2)sc2c1CC(C)(C)OC2
  0.96, -1.97
CC1=C(c2ccc(C)cc2)S(=O)(=O)NC1=NCCCN1CCN(Cc2ccccc2)CC1
  0.73, 1.06
Cc1nc(N2C(=O)c3oc4ccccc4c(=O)c3C2c2ccccc2F)sc1C (configuration not stated)
  0.26, -1.83
Cn1c(=O)c2c(SCC(=O)N3CCCCCC3)nc(-c3ccco3)nc2n(C)c1=O
  nt, -2.18
O=c1[nH]cnc2c(-c3ccccc3)csc12
  -1.01, -1.65
O=C(O)C1=CC(c2ccc(F)cc2)n2ncc(C(=O)Nc3ccc(F)cc3)c2N1 (configuration not stated)
  -0.1, -0.68
c1ccc(CNc2ncnc3nc[nH]c23)cc1
  nt, -0.58
Cc1ccc(-n2c(N)n[nH]c2=S)cc1
  nt, -1.52
COc1ccc(C(=O)NC2CCS(=O)(=O)C2)cc1 (configuration not stated)
  nt, -1.17
COCCN=C1NS(=O)(=O)C(c2ccc(C)c(C)c2)=C1C
  -0.55, -2.54
Cn1c(SCCOc2ccccc2)nnc1-c1ccc2c(c1)OCCCO2
  1.08, nt
CCc1ccc(S(=O)(=O)Nc2cc3[nH]c(=O)[nH]c3cc2C)cc1
  -0.28, nt
O=C(CSc1cc(-c2ccccc2)ncn1)c1ccc(O)cc1O
  2.47, 0.02
COC(=O)c1cc(NC(=O)c2cc(Br)ccc2OC)cc(C(=O)OC)c1
  nt, -1.71
O=C(CCCN1CCN(c2ccccn2)CC1)c1ccc(F)cc1
  -1.29, nt
O=C(OCc1cc(=O)n2nc(-c3cccs3)sc2n1)C1CCCCC1
  0.06, nt
O=C(Nc1ccc(-c2nc3ncccc3o2)cc1)c1ccc([N+](=O)[O-])o1
  3.11, -1.45
COc1ccc(S(=O)(=O)Nc2ccsc2C(C)=O)cc1
  nt, -0.85
O=C(NCCc1c[nH]c2ccc(Cl)cc12)C1CCN(c2nc3cccnc3s2)CC1
  1.33, nt
C=CCn1c(SCC(=O)N2c3ccccc3Sc3ccccc32)nnc1-c1ccncc1
  nt, -1.44
CCCCN(CCCC)C(=O)c1cc2c(=O)n3ccccc3nc2s1
  nt, -0.54
NNc1nc2ccccc2[nH]c1=S
  nt, 5.53*
O=C1CCCc2nc(Nc3nc(-c4ccccc4)c4ccccc4n3)ncc21
  -1.88, -0.9
CC(C)c1nnc2n1N=C(c1ccc(Cl)cc1)CS2
  -1.26, -1.86
CCOc1ccc(N(Cc2ccccc2)C2=NC3CS(=O)(=O)CC3S2)cc1 (configuration not stated)
  2.6, -6.07
CCC(CC)C(=O)Nc1nnc(SCc2cc(=O)c3ccccc3[nH]2)s1
  2.29, nt
Cn1c(COc2ccc(C(C)(C)c3ccccc3)cc2)n[nH]c1=S
  nt, -0.12
CC(C)CNc1nc(Oc2ccc(=O)n(C)n2)nc(N2CCOCC2)n1
  0.95, -0.07
COC(=O)CN1C(=O)CSc2ncccc21
  0.22, 0.2
COC(=O)C(C(C(=O)OC)N1CCOCC1)N1CCOCC1 (configuration not stated)
  nt, -1.3
COc1cc(OC)cc(-n2c(=O)c3sccc3n(Cc3cc(=O)n4ccccc4n3)c2=O)c1
  nt, -0.6
Cc1cc(C)cc(NC(=S)NCCCNC(=O)OC(C)(C)C)c1
  nt, -0.73
Cc1ccc(CNc2nc(C)c3nc(-c4ccccc4)oc3n2)cc1
  -6.11, nt
COc1ccccc1-c1cc(N)n(S(=O)(=O)c2ccc(F)c(C)c2)n1
  nt, -1.4
CCCc1nc2n(n1)C1(CCCCC1)[C@@H]1CCCC[C@@H]1N2C(=O)COC
  0.91, -1.5
Cc1cc(C)c2c(=O)cc(C(=O)Nc3cccnc3)oc2c1
  2.33, -2.38
CCCS(=O)(=O)c1nc(S(=O)(=O)c2ccc(Cl)cc2)c(N2CCC(O)CC2)s1
  -0.54, -4
CCOC(=O)c1c(NC(=O)c2cc(C)no2)sc2c1CCCC2
  0.64, 0.1
CN(C)c1ccc(CNc2ccc3c(c2)ncn3C)cc1
  nt, -1.28
COc1cccc(C2C(C#N)=C(C)NC3=C2C(=O)CC(c2ccccc2)C3)c1OC (configuration not stated)
  -0.43, -0.7
O=S(=O)(c1ccccc1)N(Cc1nc(-c2ccccc2)no1)C1CCCCC1
  0.92, -0.68
O=C(Nc1ccc(Br)cc1)c1cnn2c1NC(c1cccs1)CC2C(F)(F)F (configuration not stated)
  -0.05, -1.07
COc1ccc2oc(CS(=O)c3ccccc3)c(C(=O)O)c2c1 (configuration not stated)
  1.75, 0.7
O=C(Nc1c(C(=O)N2CCN(C(=O)c3ccco3)CC2)oc2ccccc12)c1c(F)cccc1F
  1.76, nt
Cc1ccc(-c2csc3ncn(Cc4ccc(F)cc4)c(=O)c23)cc1
  1.19, -0.24
O=C(CSc1nc2sc3c(c2c(=O)[nH]1)CCCC3)NCc1ccccn1
  nt, -0.15
Clc1ccc(C2CC(c3cccs3)Nc3nnnn32)cc1 (configuration not stated)
  0.53, nt

More structures follow:
Fields – HIV TAR-Tat, CDC25B-CDK2 inh
CC(=O)N1N=C(COc2ccc(Cl)cc2)OC1c1cc2c(cc1Br)OCO2 (configuration not stated)
  0.89, nt
Cc1ccc(OCc2nc3ccc(C)cc3[nH]2)c(C)c1
  2.08, 2.12
CN(C)c1ccc(C2N(c3cccc(Cl)c3)C(=O)C3CCCN32)cc1 (configuration not stated)
  -0.09, -0.38
CCCNC(=O)Cn1cc(S(=O)(=O)NC)c(S(=O)(=O)NC)c1
  0.29, nt
CCCCCCCOc1ccc(/C=C/c2c([N+](=O)[O-])c(=O)n(C)c(=O)n2C)cc1
  0.61, -0.98
CCc1ccc(C2=Nn3c(nnc3-c3ccc(OC)cc3)SC2)cc1
  1.08, nt
COc1ccccc1NC(=O)CN1c2cccc3cccc(c23)S1(=O)=O
  -2.07, -1.77
CCCCC#Cc1cncc(C(=O)N/N=C/c2ccccc2)c1
  nt, -1.55
CC1CCN(CCNc2ncnc3onc(-c4cc(F)cc(F)c4)c23)CC1
  0.58, nt
Cc1cc(C)n(-c2nc3c(c(=O)n2CC(=O)Nc2ccc4c(c2)OCCO4)CCC3)n1
  0.83, nt
O=C(Nc1ccc(Cl)cc1OC(F)(F)F)c1ccco1
  nt, -0.1
O=C(O)c1ccc2nc(CCc3ccccc3)[nH]c2c1
  1.43, -1.49
COCC(C)NC(=O)c1noc(C)c1[N+](=O)[O-] (configuration not stated)
  1.66, -1.39
Cc1cc(C)c2c3c(sc2n1)C(=O)N(c1ccc(Cl)cc1)CN3
  -1.25, -0.64
Cn1cc(S(=O)(=O)N2CCC(C(=O)Nc3nccs3)CC2)cc1C(=O)N1CCCC1
  0.87, nt
O=C(O)Cn1c(=O)c2cccn2c2cccnc21
  -1.86, nt
Cc1c(NS(=O)(=O)c2ccc3c(c2)n(C)c(=O)n3C)c(=O)n(-c2ccccc2)n1C
  2.41, -0.42
Cc1ccc(NC(=O)CC2CC(C)(C)OC2=O)cc1 (configuration not stated)
  nt, -2.74
COc1ccc(N2CC(NC(=O)Nc3nc4ccccc4s3)CC2=O)cc1 (configuration not stated)
  2.13, nt
O=C(NCc1ccc2c(c1)OCO2)C1CCN(C(=O)OCc2ccccc2)CC1
  nt, -2.3
Cc1c(C(=O)c2ccccc2)oc2ccc(N)cc12
  -2.4, nt
CN1C(C(=O)NCc2ccc(F)cc2)=CC(c2ccc3c(c2)OCO3)=NS1(=O)=O
  1.01, -1.68
Nc1nnc(-c2ccc([N+](=O)[O-])o2)s1
  nt, -1.29
O=C(NCC1CCCO1)c1ccc(NC(=O)c2nsc3ccccc23)cc1 (configuration not stated)
  -0.17, nt
N#Cc1cnc(-c2ccncc2)nc1-c1cccs1
  nt, -0.52
Cc1csc2c(=O)n(CCN3CCSCC3)c(=O)[nH]c12
  nt, -1.67
CCCc1nn2c(=O)cc(COc3ccc(Cl)cc3C)nc2s1
  1.99, -1.93
COc1cc2nc(NCCc3c[nH]c4ccccc34)n3nc(-c4ccccc4)nc3c2cc1OC
  0.25, -1.53
COc1ccc(CN=C2NS(=O)(=O)C(c3ccc(F)cc3)=C2C)cc1OC
  0.49, nt
COCC(=O)N(c1ccc(Cl)cc1)C1C=CS(=O)(=O)C1 (configuration not stated)
  1.59, -1.78
Cc1ccc2c(c1)N(S(=O)(=O)c1cc(-c3cc(C)no3)ccc1C)CCO2
  0.79, nt
Cc1cc(C)c(C=C2C(=O)CCCC2=O)[nH]1
  nt, -2.62
CC(C)(CC(=O)O)CC(=O)N1CCN(c2ncccc2C#N)CC1
  nt, -2.28
c1ccc(-c2nc3c4ccccc4ccn3c2CN2CCOCC2)cc1
  -0.04, 0.92
Cc1c(C(=O)NCCC(C)C)oc2ccc(S(=O)(=O)N3CCCC3)cc12
  nt, -0.27
Cc1nc2ccc(Cc3ccc4nc(C)[nH]c4c3)cc2[nH]1
  -0.08, -0.47
Cc1ccc(CCNS(=O)(=O)c2ccc3c(c2)N(C)CCO3)cc1
  0.69, nt
Cc1cccc(-c2cc(N3CCN(S(=O)(=O)c4cccc5nsnc45)CC3)ncn2)c1
  1.15, nt
Cc1nnc2c(NCc3ccc(F)cc3)nc3ccc(C(=O)c4ccccc4)cc3n12
  1.02, 1.59
COc1ccc(-c2cc3c4c(C)n(C)c(C)c4c(C)nn3c2)cc1
  11.1*, 1.96
Cc1nnc(NCCC(C)C)c2c1nnn2Cc1ccccc1Cl
  1.05, -1.52
CCCOC(=O)Cc1n[nH]c(=O)[nH]c1=O
  -0.19, -1.42
COc1ccc(OC)c(N2C(=O)c3cccnc3C2Nc2cc(C)c(Cl)cc2OC)c1 (configuration not stated)
  -1.72, nt
Cn1c(SCC(=O)NCc2ccccc2)nnc1-c1ccc2nonc2c1
  nt, -1.14
C(=C\c1ccc2c(c1)OCO2)/C1=NN(c2ccccc2)C(c2ccc3c(c2)OCO3)C1 (configuration not stated)
  0.32, 15.6*
O=C1CCCc2oc3c(cc(NS(=O)(=O)c4cccc([N+](=O)[O-])c4)c4ccccc43)c21
  nt, -0.92
CC1(C)CC(=O)C2=C(C1)Nc1nc(SCc3ccccc3F)nn1C2c1cccnc1 (configuration not stated)
  nt, -0.68
FC(F)(F)c1cccc(N2CCN(C3=Cc4ccccc4CC3)CC2)c1
  nt, 1.37
CC1=C(C(=O)OCc2ccccc2)C(c2ccc(Cl)cc2Cl)NC(=O)N1CCCC(=O)O (configuration not stated)
  1.21, nt
O=C(NCC1CCCO1)c1cnn2c3c(cnc12)CCCCCC3 (configuration not stated)
  1.16, nt

3 entries from above, field by field.
COc1ccc(OC)c(N2C(=O)c3cccnc3C2Nc2cc(C)c(Cl)cc2OC)c1 (configuration not stated)
  HIV TAR-Tat: -1.72; CDC25B-CDK2 inh: nt

Cn1c(SCC(=O)NCc2ccccc2)nnc1-c1ccc2nonc2c1
  HIV TAR-Tat: nt; CDC25B-CDK2 inh: -1.14

C(=C\c1ccc2c(c1)OCO2)/C1=NN(c2ccccc2)C(c2ccc3c(c2)OCO3)C1 (configuration not stated)
  HIV TAR-Tat: 0.32; CDC25B-CDK2 inh: 15.6*

Next part:
Fields – HIV TAR-Tat, CDC25B-CDK2 inh
CCN1C(=O)CCc2cc(NS(=O)(=O)c3ccc4c(c3)CCCC4)ccc21
  2.33, nt
O=C(Nc1ccc(Br)cc1F)N1CCOc2ccccc21
  1.78, nt
Cc1ccc(-c2noc(CSc3nnc(C)n3-c3ccc(F)cc3)n2)cc1
  2.38, -1.75
CCOC(=O)N1CCN(Cc2nc3cc(NC(=O)NC4CCCCC4)ccc3n2C)CC1
  1.36, -0.49
CCCN(CCC)C(=O)CSc1nc(-c2ccc(Cl)cc2)nc2cc(=O)[nH]n12
  -1.26, nt
O=C(NCC1CCCO1)c1ccc(NC(=O)c2nc(-n3cnnc3)ccc2Br)cc1 (configuration not stated)
  2.02, nt
Cc1cc(NC(=O)N2CCCC2c2ccco2)ccc1Br (configuration not stated)
  1.39, -0.94
COc1ccc2nc3oc(C(=O)N4CCC(C(N)=O)CC4)cc3cc2c1
  nt, -3.17
O=C1CC(c2cccs2)CC2=C1C(c1cc(=O)c3ccccc3o1)Nc1ccccc1N2 (configuration not stated)
  nt, 0.23
CCOC(=O)c1c(C)[nH]c(C)c1S(=O)(=O)Nc1cccc(Br)c1
  1.32, nt
O=C(Nc1nc(-c2ccc(OC(F)(F)F)cc2)no1)NN1CCCCC1
  nt, -2.52
CC(=O)O[C@H]1C[C@@]2(C)[C@H](c3ccoc3)OC(=O)[C@H]3O[C@]32[C@@]2(C)C1[C@]1(C)C(C[C@H]2OC(C)=O)C(C)(C)[C@H](OC(C)=O)C[C@@H]1OC(C)=O (some centres not stated)
  0.26, nt
CCCCN1C(=O)/C(=c2\sc3n(c2=O)C(c2cccs2)C(C(=O)OC)=C(C)N=3)c2ccccc21 (configuration not stated)
  nt, -2.34
Cc1nc2ccccc2c2c1C(=O)N(c1ccccc1C(=O)OCC(=O)C(C)(C)C)C2=O
  -0.77, 4.15
Clc1ccc2[nH]nc(-c3ccccc3)c2c1
  nt, -1.94

Screening data as filed in PubChem.
